HSV augment: enhancers of HSV replication in host cells, fold increase, host cell viability | HSV replication augmentation in cells | maximum fold increase | 220,000 tested, 0.005% active | AID 1956, 2009;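 active = peak rise of 1.5-fold or more in the series; tested in PC3 cells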;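 note: first round at 10 µM; read as green reporter fluorescence; hits show the peak of a series up to 25 µM; 1 = signal of infected wells without compound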
Insulin prom inh: inhibitors of insulin promoter-driven GFP, primary screen, imaging, TRM-6 cells (human fetal islet line), eGFP reporter, cell count | reporter expression induced with tamoxifen | inhibition, % at 2 µM | 130,000 tested, 0.9% active | AID 1273, 2008;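 active = inhibition above the mean plus 3 SD, with well images judged a real hit on visual review, cut at about 60% in these data, passing the limit was not always enough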
GALR2 agonist: GALR2 receptor agonists, primary screen, cell-based | Galanin receptor type 2 (Homo sapiens), O43603 | GALR2-expressing cells, agonist activation read-out | activation, %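 (tested at 5 µM)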 | 140,000 tested, 0.48% active;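 active = above mean plus 3 SD of all compounds, about 5% in these data, not always enough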;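 note: 0% = vehicle buffer wells and 100% = reference agonist at full effect; tested in CHO reporter cells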
Target sequence (O43603 whole entry, looked up): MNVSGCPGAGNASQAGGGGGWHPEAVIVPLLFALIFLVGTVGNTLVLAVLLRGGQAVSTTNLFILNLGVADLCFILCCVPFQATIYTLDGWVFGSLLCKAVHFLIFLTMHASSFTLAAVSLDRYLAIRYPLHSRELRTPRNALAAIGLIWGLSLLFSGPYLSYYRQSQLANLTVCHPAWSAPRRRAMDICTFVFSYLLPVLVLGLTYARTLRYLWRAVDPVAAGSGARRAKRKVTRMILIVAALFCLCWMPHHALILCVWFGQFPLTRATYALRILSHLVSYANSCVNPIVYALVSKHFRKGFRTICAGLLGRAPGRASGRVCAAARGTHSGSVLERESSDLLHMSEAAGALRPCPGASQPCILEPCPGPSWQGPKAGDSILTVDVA
PKD1 inh: inhibitors of human PKD1 kinase, biochemical, fluorescence polarization | Serine/threonine-protein kinase D1 (Homo sapiens), Q15139 | PKD1 kinase fluorescence polarization assay | inhibition, %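 (about 10 µM by stock and volumes)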 | 200,000 tested, 0.056% active | AID 797, 2007;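 active = inhibition of 50% or more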;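 note: controls were vehicle for no effect and a reference inhibitor for full effect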
RGS16-Gao HTS: modulators of RGS16 binding to Galphao, primary screen, biochemical, human proteins, multiplexed bead flow cytometry; bead-based flow cytometry RGS16-Galphao binding, fluorescence; actives lie on both sides; binding response (% of control), % at 10 µM; 220,000 tested, 0.38% active; AID 1441, 2008;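 active = below 25% or above 175%, edge rows of some plates excepted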;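 note: Galphao activated by GDP with aluminum fluoride before binding; 100% = wells without compound and 0% = beads without RGS; some results beyond the cut were filed as inactive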
Target sequence (O15492 whole entry, looked up): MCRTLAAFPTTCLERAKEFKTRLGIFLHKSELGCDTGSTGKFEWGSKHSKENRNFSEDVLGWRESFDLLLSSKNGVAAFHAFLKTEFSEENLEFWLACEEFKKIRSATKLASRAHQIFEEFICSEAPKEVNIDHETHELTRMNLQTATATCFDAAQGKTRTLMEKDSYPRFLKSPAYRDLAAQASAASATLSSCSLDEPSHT
Target sequence (P09471 whole entry, looked up): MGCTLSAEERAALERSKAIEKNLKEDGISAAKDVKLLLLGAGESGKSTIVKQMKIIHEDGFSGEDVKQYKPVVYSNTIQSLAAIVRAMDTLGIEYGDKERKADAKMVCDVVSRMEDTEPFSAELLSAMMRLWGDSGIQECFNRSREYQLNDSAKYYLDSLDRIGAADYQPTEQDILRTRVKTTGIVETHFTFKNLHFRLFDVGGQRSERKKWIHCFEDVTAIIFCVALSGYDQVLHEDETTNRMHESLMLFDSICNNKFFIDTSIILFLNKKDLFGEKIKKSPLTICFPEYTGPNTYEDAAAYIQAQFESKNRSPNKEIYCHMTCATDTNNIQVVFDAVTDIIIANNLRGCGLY
Insulin prom inh cell count: recorded beside Insulin prom inh, whose call it bears; normalized cell count, %; measured here: cell count, toxicity; reference of the scale not given here;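 cells exposed to compound for 48 h; stained nuclei by imaging scaled within each plate; lower means fewer cells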
HSV augment primary fold: further read-out of HSV augment, marked with its call; fold increase; compound at 10 µM; measured here: primary screen fold increase 10 uM; tested in PC3 cells;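 GFP signal in the first replicate; 1 = infected wells without compound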
Active calls of the source: *; i = inactive; . = not tested or not shown.

SMILES	HSV augment	HSV augment primary fold	Insulin prom inh	Insulin prom inh cell count	GALR2 agonist	PKD1 inh	RGS16-Gao HTS
Cc1ccc(-n2c(SCC(=O)NCc3ccco3)nc3sc4c(c3c2=O)CC(C)(C)SC4)cc1	i	0.96	11	65	-0.4	-12	96
CC(C)C(=O)N1CCC2(CC1)Oc1ccc(F)cc1C(=O)C21CC(c2cccnc2)=NO1 (stereo not given)	i	0.7	.	.	.	.	96
Cc1cc(C(=O)N2CCN(c3ncccn3)CC2)c(C)o1	i	0.89	-6	75	-1.2	-7	104
Cc1cnn(CCC(=O)NNC(=S)NCC(C)C)c1	i	1	-13	109	-0.4	-14	105
Cc1nn(Cc2ccc(Cl)cc2)c(C)c1NC(=O)Cn1nc([N+](=O)[O-])c(Cl)c1C	i	1	.	.	-2.0	-2	98
O=C1CS/C(=N/N=C/c2cccs2)N1	i	1	.	.	.	-6	103
COC(=O)c1ccc(COc2ccc3c(c2)CCC3)o1	i	0.88	.	.	.	.	93
O=C(Cn1nc(-c2ccccc2)ccc1=O)Nc1ccc(-n2cnnn2)cc1	i	0.94	.	.	.	.	106
Cc1ccc(NC(=O)Cn2nnc3ccccc32)c(C)c1	i	0.95	.	.	.	-1	100
N/C(CC(=O)NC1CCCCC1)=N\OCC(=O)Nc1ccc(Cl)c(Cl)c1	i	0.84	.	.	.	.	102
NC(=O)c1cc2ccncc2c2ccccc12	i	0.65	.	.	.	.	105
Cn1nc(/C=C/c2ccccc2)ccc1=O	i	0.99	54	60	.	-5	95
O=c1oc2cc(S(=O)(=O)NCCCO)ccc2c2ccc(S(=O)(=O)NCCCO)cc12	i	0.81	.	.	.	.	101
COc1ccc(-c2cccc(C(=O)Nc3ccc(C)cc3)c2)cc1	i	0.75	-12	65	-1.6	-7	98
COc1ccccc1C(=O)Nc1c2c(nn1-c1cccc(C)c1C)CS(=O)(=O)C2	i	1.1	-33	133	2.3	-4	104
CCO/C([O-])=N/c1sn[n+](C)c1C	i	0.76	.	.	.	.	91
O=C(Nc1ccc(S(=O)(=O)N2CCCC2)cc1)C1COc2ccccc2O1 (stereo not given)	i	0.91	.	.	-0.1	-5	83
CC(OC(=O)c1ccc2ncsc2c1)C(=O)N1CCCC1 (stereo not given)	i	1	.	.	.	-5	103
COc1ccc(/C=N/n2cnc3scc(-c4cccs4)c3c2=O)cc1OC	i	0.93	33	180	0.0	-3	101
COC(=O)CCP(=O)(O)Cc1ccccc1CP(=O)(O)CCC(=O)OC	i	1	-9	73	-1.6	-4	101
CC(NS(=O)(=O)c1ccc(Br)cc1)C(=O)NCc1ccco1 (stereo not given)	i	1.1	.	.	.	-5	93
OCCCNc1nc(-c2ccc(Br)cc2)nnc1-c1ccc(Cl)cc1	i	0.66	-15	113	0.3	-6	103
Cc1cc(C)cc(NC(=O)Oc2ccccc2N2CCCCC2)c1	i	1.1	.	.	.	.	101
COc1cccc(-c2nn(-c3ccccc3)cc2C(=O)Nc2nccs2)c1	i	0.61	66	140	-0.7	-1	102
CC1CN(S(=O)(=O)c2cccc(C(=O)NCCCn3ccnc3)c2)CC(C)O1 (stereo not given)	i	1	-51	77	-1.4	-1	100
O=C1C2C(c3ccccc3)CC=CC2[C@H](c2cccc([N+](=O)[O-])c2)N1Cc1ccccc1 (stereo not given in full)	i	0.83	.	.	.	.	96
Cc1ccc(-c2cccc(CN3CCN(C(C)C)C(CCO)C3)c2)o1 (stereo not given)	i	0.97	.	.	.	-3	98
Cn1cnnc1SCC(=O)c1ccc2c(c1)OCCO2	i	0.9	i	55	-2.2	-2	102
Cc1cccc(C(=O)NC2CCN(C(=O)Nc3ccccc3C)CC2)c1	i	0.99	.	.	.	-1	112
O=C(NCc1cccnc1)c1ccc([N+](=O)[O-])o1	i	0.8	-36	60	.	-2	105
COC(=O)c1cccc(NS(=O)(=O)c2cccs2)c1C	i	0.79	51	107	-2.2	-4	110
CCn1c(SCC(=O)Nc2cccc(F)c2)nnc1-c1cc2cc(Br)ccc2o1	i	0.86	-45	114	-2.4	4	94
C=CCc1ccc(OCCOc2cccc3cccnc23)c(OC)c1	i	0.91	-24	89	-0.3	0	112
Cc1nn(Cc2ccc(C(=O)NC(C)(C)C)o2)c(C)c1Br	i	1	-9	165	0.0	4	108
N=c1c2ccccc2nnn1-c1cccc(C(F)(F)F)c1	i	0.96	-63	111	.	-4	99
COc1ccc(-n2c(=O)c3ccccc3c3ccccc3c2=O)c(OC)c1	.	.	.	.	-0.7	-11	111
O=C(Cn1nc(-c2ccccc2)ccc1=O)Nc1ccc(N2CCN(C(=O)c3cccs3)CC2)cc1	i	0.98	67	67	.	3	88
COc1ccc(-c2[nH]ncc2CN2CCC(c3ccncc3)CC2)cc1F	i	1	.	.	.	.	101
COc1cc2c(cc1OC)CN(CC(=O)NC(=O)NC1CCCCC1)CC2	i	0.83	47	109	.	8	97
Cn1nccc1C(=O)N1CCc2ccccc21	i	0.93	.	.	-2.5	-16	101
CC(C)(C)n1ncc2c(=O)n(CC(=O)N3CCN(c4ccccc4)CC3)cnc21	i	0.91	.	.	-1.5	-3	96
N#Cc1nc(COc2ccccc2Cl)oc1NCc1ccco1	i	0.86	-14	111	0.5	5	97
CC1=C(C(=O)N(C)C)C(c2ccccc2OC(F)F)NC(=O)N1 (stereo not given)	i	1.1	-76	121	.	-1	96
C=CC[n+]1c(-c2ccc(C)cc2)csc1Nc1c(C)n(C)n(-c2ccccc2)c1=O	i	0.99	10	71	.	-4	98
NC(=O)c1ccsc1NC(=O)COC(=O)c1ccccc1NCc1ccco1	i	1	23	82	-1.3	2	96
C[C@H](NC(=O)c1nc[nH]c1C(=O)N[C@H](C)c1ccccc1)C(=O)OC(C)(C)C	.	.	.	.	.	-10	16*
CCN(CCS(=O)(=O)c1ccc(Cl)cc1)C(=O)Nc1ccccc1	i	0.98	.	.	.	.	104
COc1cccc(NC(=O)CSc2nc3ccccc3c(=O)n2Cc2cccs2)c1	i	0.97	-53	104	-1.6	-3	48
CCC(C(=O)N1CC2(C)CC1CC(C)(C)C2)N1C(=O)c2ccccc2C1=O (stereo not given)	i	1	29	104	-2.5	-8	105
Cc1c(Cc2ccc3c(c2)OCO3)sc(NC(=O)c2cccc3ccccc23)c1C(N)=O	i	0.87	-17	104	0.6	-8	64
CCc1ccc(NC(=O)C(C)OC(=O)C2CCC(=O)N2)cc1 (stereo not given)	i	0.92	.	.	.	-7	104
CCCc1cc(-c2n[nH]c(=S)n2CC(C)C)cs1	i	0.94	3	123	1.0	-11	100
CCN(CC)S(=O)(=O)c1ccc(NN=c2c(=O)c3ccccc3c2=O)cc1	i	1	.	.	.	.	103
CS(=O)(=O)N(CC(=O)N1CCN(c2ccccc2)CC1)c1cc(C(F)(F)F)ccc1Cl	i	0.74	-31	188	-0.2	-9	98
CSc1nc(Oc2ccc(=O)n(C)n2)nc(N(C)C)n1	i	1.1	24	87	-0.8	1	102
O=C(CCc1nc2ccccc2s1)OCc1ccccc1F	i	0.97	.	.	0.3	-3	101
O=C(O)C(Cc1ccccc1)N=Cc1c(O)c2ccccc2oc1=O (stereo not given)	i	0.97	50	112	.	5	107
CCOC(=O)CNC(=O)CN1C(=O)CCSc2ccccc21	i	1	-11	106	-1.1	0	106
CC(=O)Oc1ccc(-c2cccc(C(=O)OCC(=O)Nc3ccccc3Oc3ccccc3)c2)cc1	i	1.2	.	.	-1.0	-6	101
CNC(=S)N1N=C(c2ccc(C)cc2)CC1c1ccc(OC)c(OC)c1 (stereo not given)	i	0.98	18	106	0.3	-3	133

The listing continues.
SMILES	HSV augment	HSV augment primary fold	Insulin prom inh	Insulin prom inh cell count	GALR2 agonist	PKD1 inh	RGS16-Gao HTS
COc1ccc2oc(=O)c(-c3nnc(NCc4ccco4)s3)cc2c1	i	0.91	.	.	2.2	-10	90
Cc1ccccc1OCc1nc2c3cnn(C)c3ncn2n1	i	0.76	-46	119	-2.1	-9	111
O=C(CSc1nc(-c2ccco2)cc(C(F)(F)F)n1)N1CCSCC1	i	1	17	110	-0.5	-5	113
Cc1ccc(CC(=O)Nc2cccc(C#N)c2)cc1	i	1	.	.	.	4	102
Clc1cccc(N2CCN(Cc3nc(-c4ccccc4)no3)CC2)c1	i	0.86	.	.	-2.2	-8	103
C/C(=N/OCO/N=C(/C)c1ccc(F)cc1)c1ccc(F)cc1	i	0.97	.	.	0.1	1	115
COc1ccc(Cn2c(C)c(C)c(C#N)c2NC(=O)Nc2ccc(Cl)cc2)cc1	i	1.2	-19	140	-2.7	7	102
CCCOC(=O)Nc1ccc(N2CCCCC2)cc1	i	0.87	7	98	-1.1	4	96
Cc1cccc2cc(CNCC3CCCO3)c(Cl)nc12 (stereo not given)	i	1	33	91	.	-1	96
CCSc1nc2c(c(=O)[nH]c(=O)n2C)n1C	i	0.97	.	.	-2.6	2	102
CN(C)c1ccc(C(CC(=O)O)NC(=O)c2ccc(Cl)cc2)cc1 (stereo not given)	i	0.91	9	83	0.8	-11	96
Cc1ccc(C(=O)NC(=S)N2CCN(C(=O)OC(C)(C)C)CC2)cc1Br	i	1	.	.	.	0	100
CC(C)n1c(SCC(=O)Nc2ccccc2N2CCOCC2)nc2c1c(=O)n(C)c(=O)n2C	i	0.94	18	119	-0.1	-5	107
COc1ccc(C)cc1N(CC(=O)O)S(=O)(=O)c1ccc(C)cc1	i	1	35	65	-0.8	0	107
Cc1c(Cl)c([N+](=O)[O-])nn1CCCC(=O)Nc1sc2c(c1C#N)CCC2	i	0.83	-62	103	-2.8	4	99

Rewritten in markdown: three of the compounds above.
| Compound | HSV augment | HSV augment primary fold | Insulin prom inh | Insulin prom inh cell count | GALR2 agonist | PKD1 inh | RGS16-Gao HTS |
| --- | --- | --- | --- | --- | --- | --- | --- |
| CCSc1nc2c(c(=O)[nH]c(=O)n2C)n1C | i | 0.97 | . | . | -2.6 | 2 | 102 |
| CN(C)c1ccc(C(CC(=O)O)NC(=O)c2ccc(Cl)cc2)cc1 (stereo not given) | i | 0.91 | 9 | 83 | 0.8 | -11 | 96 |
| Cc1ccc(C(=O)NC(=S)N2CCN(C(=O)OC(C)(C)C)CC2)cc1Br | i | 1 | . | . | . | 0 | 100 |

(list continues)
SMILES	HSV augment	HSV augment primary fold	Insulin prom inh	Insulin prom inh cell count	GALR2 agonist	PKD1 inh	RGS16-Gao HTS
Cc1ccccc1CSc1nnc(C)c(=O)n1N	i	0.92	.	.	.	-5	98
O=C(Nc1ccccc1Cl)C(Cl)C(=O)c1ccccc1 (stereo not given)	i	0.99	31	67	.	3	92
CC(C)N(C(=O)CSc1nnc(CSc2ncccn2)n1C)C(C)C	i	0.98	-24	90	.	-3	103
COc1ccc(-c2cc(C(F)(F)F)nc(S(C)(=O)=O)n2)cc1OC	i	0.92	.	.	4.0	-7	100
Cc1ccc(C(=O)N2C(=O)c3cccc(N)c3C2=O)o1	i	0.91	.	.	.	.	102
CCCCn1nnnc1SCC(=O)NCc1ccccc1	i	1.1	-267	71	-0.8	-1	106
COc1ccc(/C=C/C(=O)NCc2ccc(F)cc2)cc1S(=O)(=O)N1CCOCC1	i	1	.	.	.	.	97
O=C(CSCc1ccccc1Cl)NNC(=O)c1ccccc1	i	1	-10	107	-1.7	-16	112
COCCN1C(=O)N[C@@H](c2ccc(Br)cc2)C(C(C)=O)=C1C	i	0.96	40	131	-0.5	-7	103
COCCN1C(=O)N(C)[C@@H](c2ccccc2)C(C(C)=O)=C1C	i	0.98	.	.	.	.	100
Cc1ccc(C(=O)Nc2cc(Cl)ccc2Oc2ccccc2)cc1[N+](=O)[O-]	i	0.99	22	96	-1.2	1	97
CCN1CCN(c2ccc(NC(=O)COc3ccccc3Cl)cc2)CC1	i	0.78	-12	69	-2.7	-7	107
CN(C)c1ccc(/C=N/Nc2ccc(-n3ccnc3)nn2)cc1	i	1.1	-16	84	-2.4	-11	93

6 compounds from above, showing only Insulin prom inh cell count and HSV augment primary fold.
mol	Insulin prom inh cell count	HSV augment primary fold
CC(C)N(C(=O)CSc1nnc(CSc2ncccn2)n1C)C(C)C	90	0.98
COc1ccc(-c2cc(C(F)(F)F)nc(S(C)(=O)=O)n2)cc1OC	.	0.92
Cc1ccc(C(=O)N2C(=O)c3cccc(N)c3C2=O)o1	.	0.91
CCCCn1nnnc1SCC(=O)NCc1ccccc1	71	1.1
COc1ccc(/C=C/C(=O)NCc2ccc(F)cc2)cc1S(=O)(=O)N1CCOCC1	.	1
O=C(CSCc1ccccc1Cl)NNC(=O)c1ccccc1	107	1

Screening data as filed in PubChem BioAssay.

This is a random part of the collection, and some 1.3% of all compounds hit somewhere here.
